Bioassay records: PubChem, ICCB-Longwood Screening Facility, Harvard Medical School
Sa growth inh: S. aureus growth inhibition at 42 and 30 °C, primary screen, LtaS inhibitor project, RN4220, two temperatures. relative growth, % (concentration not given with the values). OD600, 20 h, 42 °C; hits give low values. actives 0.53% (n = 170,000);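 active means growth at 42 °C up to 50% and 20 or more points under that at 30 °C, or under 10% at both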;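 further: 300 nL library stock went into each well; scaled to the means of positive and negative controls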
GIV-Gai inh: inhibitors of GIV peptide binding to Galpha-i3, primary screen, biochemical, fluorescence polarization, FITC-GIV GBA peptide, rat Galphai3. percent of control (FP), % (test concentration not listed). actives 0.42% (n = 210,000). Guanine nucleotide-binding protein G(i) subunit alpha-3 (Rattus norvegicus), P08753. 90 min; hits give low values; scaled: aluminum fluoride 0%, vehicle 100%. AID 1224905, 2016;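 active means replicate mean at 85% of control or lower, very high polarization wells dropped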;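 further: wells of about 15 µL received 100 nL stock; the first replicate is given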
Target sequence (P08753 whole entry, looked up): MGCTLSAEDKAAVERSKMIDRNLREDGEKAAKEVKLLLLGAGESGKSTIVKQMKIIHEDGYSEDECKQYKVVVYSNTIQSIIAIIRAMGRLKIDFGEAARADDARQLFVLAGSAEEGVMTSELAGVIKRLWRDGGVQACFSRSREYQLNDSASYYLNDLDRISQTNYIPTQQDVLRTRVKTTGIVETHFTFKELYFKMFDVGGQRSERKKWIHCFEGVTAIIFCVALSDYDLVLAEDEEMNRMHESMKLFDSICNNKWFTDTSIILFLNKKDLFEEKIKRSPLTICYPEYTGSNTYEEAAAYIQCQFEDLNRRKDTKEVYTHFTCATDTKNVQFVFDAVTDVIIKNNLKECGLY
HCMV NEC inh: inhibitors of HCMV UL50-UL53 interaction, biochemical, HTRF; HCMV UL50-UL53 nuclear egress complex (human cytomegalovirus); normalized percent inhibition; inhibition, % (no concentration beside the values); actives 0.15% (n = 190,000); AID 1918969, 2023;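 active means both replicates at 50% or more, plus weaker picks with an unusually low signal ratio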;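 further: stock transfer was 100 nL into about 20 µL; 0% = negative control wells and 100% = wells with untagged competitor protein; inactives centre near -12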
Sa growth inh second temp: further read-out of Sa growth inh, marked with its call; relative growth, %; measured here: growth at 30 °C;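 optical density after 20 h as mean of two plates; 100% = untreated growth and lower means inhibition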
Starred values were filed as active, the others as inactive; x = no result given; & = joins results of further samples.

SMILES	Sa growth inh	Sa growth inh second temp	GIV-Gai inh	HCMV NEC inh
O=C(COC(=O)c1ccc(O)cc1)Nc1nccs1	96.2	86.3	x	-30.3
C(=Nc1cccc2ccccc12)c1ccccc1	95.3	75.0	108.9	x
CCCCC(=O)N1c2ccccc2NC2=C(C(=O)CC(C)(C)C2)C1c1ccc(OC)cc1OC (configuration not stated)	x	x	103.3	-1.2
CC1=C(C(=O)Nc2ccc(Cl)cc2)C(C(C)C)n2nc(SCc3ccc(Cl)cc3)nc2N1 (configuration not stated)	106.7	88.9	100.8	-36.4
CCOC(=O)c1[nH]c(C)c(C(=O)OCC(=O)c2cc(C)n(-c3nccs3)c2C)c1C	103.5	100.1	x	13.0
O=S(=O)(NCCc1nc2ccccc2n1S(=O)(=O)c1ccccc1)c1ccccc1	x	x	104.0	5.1
CNS(=O)(=O)c1cc(C(=O)N2CCCCC2)ccc1OC	93.2	97.8	103.6	-0.4
COc1ccc(NC(=O)N2CCn3c2nc2ccccc23)cc1	102.7	99.3	104.1	-0.7
Cc1c(CNC2CCCc3ccccc32)c(C(=O)O)c(C)n1Cc1c(F)cccc1Cl (configuration not stated)	112.0	77.5	97.8	x
CSc1ccc(CCNC(=O)CN2C(=O)COc3ccc(S(=O)(=O)N4CCCCCC4)cc32)cc1	122.9	90.7	96.5	-11.1
COc1ccc(C2=CC(c3ccccc3Cl)n3nc(-c4ccc(C)cc4)nc3N2)cc1 (configuration not stated)	90.7	93.5	97.3	17.3
Cc1cc(C(=O)CSc2nccc(-c3cccs3)n2)ccc1Cl	87.0	79.8	109.6	-25.7
COc1cccc(CN2CCc3nc(N4CCN(c5ncccn5)CC4)ncc3C2)c1	80.0	65.1	102.5	x
O=C(Nc1ccc(F)cc1)C(Sc1nnc(C2CC2)o1)c1ccccc1 (configuration not stated)	83.8	84.5	x	-24.9
O=C(O)c1ccccc1SCc1cn2ccccc2n1	82.3	92.1	x	-19.6
CSc1nc2cc(Oc3ccc4ccccc4c3)c(Cl)cc2[nH]1	84.7	89.0	x	11.1
Cc1cccc(NC(=O)c2ccc3c(c2)nnn3C)c1	x	x	97.2	-3.6
O=C(COC(=O)C1(c2ccc(F)cc2)CCCC1)N1CCN(C(=O)c2ccco2)CC1	101.0	91.5	x	-32.3
CCc1noc(C)c1C(=O)Nc1cccc(Cn2cc(Cl)cn2)c1	102.9	103.9	100.4	-1.1
O=C(NCc1ccc2c(c1)OCO2)c1cc2ccc3cccnc3c2[nH]1	x	x	100.4	-5.9
CCc1ccc(C2C(C#N)=C(N)N(N3CCOCC3)C3=C2C(=O)CC(C)(C)C3)cc1 (configuration not stated)	95.5	83.0	102.7	x
Cc1cccc(NC(=O)C2CC(=O)NC(Nc3nc4ccccc4s3)=N2)c1 (configuration not stated)	88.8	90.2	96.8	-43.9
O=c1c2sccc2[nH]c(=S)n1CC1CCCO1 (configuration not stated)	83.1	72.4	104.2	x
CCOc1ccc(NC(=O)C2CCCN(C(=O)c3cc(-c4ccncc4)n[nH]3)C2)cc1 (configuration not stated)	x	x	103.4	-26.7
O=c1[nH][nH]c(=O)c2cc(N3CCCC3)ccc12	88.2	82.2	99.5	-15.1

Record cards, as listed above. Values in the order: Sa growth inh	Sa growth inh second temp	GIV-Gai inh	HCMV NEC inh
COc1cccc(CN2CCc3nc(N4CCN(c5ncccn5)CC4)ncc3C2)c1 across the screens: 80.0	65.1	102.5	x
O=c1c2sccc2[nH]c(=S)n1CC1CCCO1 (configuration not stated) across the screens: 83.1	72.4	104.2	x
O=C(COC(=O)c1ccc(O)cc1)Nc1nccs1 across the screens: 96.2	86.3	x	-30.3
CCOC(=O)c1[nH]c(C)c(C(=O)OCC(=O)c2cc(C)n(-c3nccs3)c2C)c1C across the screens: 103.5	100.1	x	13.0
O=C(O)c1ccccc1SCc1cn2ccccc2n1 across the screens: 82.3	92.1	x	-19.6

Further structures
SMILES	Sa growth inh	Sa growth inh second temp	GIV-Gai inh	HCMV NEC inh
CC(C)Cn1cc(C(=O)N2CCCC2)c2c3ccccc3n(C)c2c1=O	102.4	91.8	102.2	x
Cc1nn(CC(=O)NCc2ccccc2Br)c(=O)c2cc3occc3n12	107.2	93.1	100.0	2.5
CCc1ccc(NC(=O)Cn2c(=O)n(-c3cccc(OC)c3)c(=O)c3c(C)c(C(=O)N(C)C)sc32)cc1	104.8	89.9	97.3	x
Cc1cc(C)n2nc(-c3ccc(C(C)(C)C)cc3)cc2n1	118.0	86.4	104.7	5.1
CCN1C(=O)CC(N2CCC(Nc3ccc(OC)cc3)CC2)C1=O (configuration not stated)	104.2	105.7	102.0	-11.8
O=C(CSc1nc2ccccc2s1)NCCC12CC3CC(CC(C3)C1)C2	97.1	87.0	x	-21.4
CC1CN(CC(O)COCc2ccc(Cl)cc2)CCN1CC(O)COCc1ccc(Cl)cc1 (configuration not stated)	103.1	94.4	x	-5.1
COc1ccc(NC(=O)CCc2nnc(C(=O)Nc3ccc(C)cc3)s2)c(OC)c1	x	x	112.7	2.3
Cc1ccc(CNC(=O)Cn2cccc2)cc1	84.6	85.9	102.6	6.8
Cc1nn(-c2ccccc2Cl)c2nc(-c3ccco3)cc(C(=O)NN)c12	90.4	85.5	x	-24.1
COc1cccc(CSc2nnc(-c3cc4occc4n3C)n2-c2ccccc2C)c1	108.8	99.2	100.0	-13.3
CCCOC(=O)COc1ccc2c(=O)c(-c3ccc(OC)c(OC)c3)c(C(F)(F)F)oc2c1	x	x	104.4	3.5
O=C(Nc1cccc(C(=O)Nc2ccc(S(=O)(=O)O)c3cc(S(=O)(=O)O)cc(S(=O)(=O)O)c23)c1)Nc1cccc(C(=O)Nc2ccc(S(=O)(=O)O)c3cc(S(=O)(=O)O)cc(S(=O)(=O)O)c23)c1	x	x	0.1*	-42.5
COc1cc(C2C(C#N)=C(N)OC3=C2C(=O)CC(c2ccccc2)C3)cc(OC)c1OC (configuration not stated)	x	x	100.5	-11.2
CC(C)CCNC(=O)C1CCC(Cn2c(=O)[nH]c3ccccc3c2=O)CC1 (configuration not stated)	105.4	86.4	99.1	x
CC(C)C(C)(C#N)Nc1ccccc1 (configuration not stated)	103.2	87.8	102.6	-25.3
C/C(=N\NC(=O)O)c1ccc(Oc2ccccc2)cc1	94.6	76.3	108.2	-32.3
CCCNC(=O)c1cccc(Nc2cc(-c3cccc(C)c3)ncn2)c1	x	x	105.8	-19.6
COc1cc(NS(=O)(=O)c2ccc(NC(=O)c3ccccc3)cc2)nc(OC)n1	96.1	86.2	97.0	x
O=C(O)CCCC=C(c1ccccc1)c1ccccc1	73.3	75.6	x	2.0
Cc1ccc(OCC(O)CNCc2ccco2)cc1C (configuration not stated)	94.5	85.2	99.3	x
Nc1ccc(-c2cc(-c3cccc(N)c3)nc(-c3ccccc3)n2)cc1	106.8	94.0	106.0	-14.8
CCOC(=O)CSc1n[nH]c(=O)n1-c1ccccc1	104.0	74.5	98.7	-1.2
CC(C)C(=O)NCC1(N2CCOCC2)CCCCC1	x	x	107.6	12.6
Cc1cc(C)cc(NC(=O)Cn2c(C)cc(C)c(C#N)c2=O)c1	93.5	90.2	99.2	x

(list continues)
SMILES	Sa growth inh	Sa growth inh second temp	GIV-Gai inh	HCMV NEC inh
Cc1ccc(NC(=O)C(C)OC(=O)C2CCN(c3ccc(C(F)(F)F)cn3)CC2)cc1 (configuration not stated)	87.7	91.9	x	-17.4
Cc1nc(C(F)(F)F)ccc1C(=O)NCc1ccccc1	102.8	105.1	109.9	x
CCOc1ccc(OCC)c(NC(=O)Cn2nc(CC)n3c(cc4sccc43)c2=O)c1	100.3	93.5	105.8	-7.1
Cc1ccc(Cl)cc1-n1ncc2c(NC3CCCCCC3)ncnc21	120.5	88.2	107.4	x
CS(=O)(=O)N(CC(=O)NC1CC1)c1ccccc1	84.8	93.1	99.7	-10.8
Cc1cc(C=C2C(=O)CC(C)(C)CC2=O)oc1C	107.5	73.9	98.3	-2.6
CN1C(=O)S/C(=C\c2cc(Cl)c(OCC(=O)O)c(Cl)c2)C1=O	119.0	91.2	98.5	x
Cc1ccc(-n2ccn3c(CCC(=O)NCCc4ccc(S(N)(=O)=O)cc4)nnc3c2=O)cc1C	x	x	111.1	5.7
Cc1cc(C)c2oc(C(=O)Nc3c(C(=O)c4ccc(F)cc4)oc4ccccc34)cc(=O)c2c1	105.7	90.5	105.1	0.5
Cc1sc2ncnc(SCC(=O)O)c2c1C	103.9	89.5	x	-18.3
Cc1cccc2c1-c1sc(C(=O)NC3CCCC(C)C3C)cc1CO2 (configuration not stated)	73.4	91.2	102.5	x
O=C(CCC1CCCC1)N1CCCN(c2nc3cc(Cl)ccc3n3cccc23)CC1	x	x	98.9	-33.5
O=c1c2ccccc2n2c(SCc3ccccc3F)nnc2n1Cc1ccccc1	x	x	97.8	-14.7
CCOC(=O)N1CCC(N2CCCC(C(=O)N3CCCC3)C2)CC1 (configuration not stated)	95.5	78.2	103.8	-23.2
COc1cc(C2NC(=O)c3c(sc4c3CCN(C)C4)N2)cc(OC)c1OC (configuration not stated)	95.1	81.2	160.1	-43.2
CC(C)c1ccc(NC(=O)C(Cc2ccccc2)NS(=O)(=O)c2ccc3c(c2)CCC(=O)N3)cc1 (configuration not stated)	107.9	88.2	104.6	1.4
CCOc1cc(-c2noc(CCCC(=O)N3CCOCC3)n2)cc(Br)c1OC	87.7	82.5	99.2	-6.6
Cc1cccn2c(=O)c(NC(=O)c3ccc(F)cc3)cnc12	x	x	101.3	-54.4
Cc1ccc(NC(=O)Cn2c(=O)c3ccc(Cl)cc3n3nncc23)cc1	93.0	91.3	105.9&103.5	-12.7&-12.5
Cc1ccc(C(=O)N(Cc2nc3nc(C)cc(=O)n3[nH]2)c2ccc(C)cc2)cc1	x	x	104.2	-29.1
CCOc1ccc(NC(=O)c2oc3ccccc3c2C)c2cccnc12	x	x	100.6	-23.6
CCOc1ccc(N(CC)S(=O)(=O)c2cccc3nsnc23)cc1	100.2	83.9	105.0	x
O=C(/C=C/c1ccco1)C1(O)CCCCC1	87.2	50.9	x	-14.2
COc1cc(OC)c(NC(=O)C2CCCN(c3nc4cccnc4s3)C2)cc1Cl (configuration not stated)	x	x	103.9	-19.0
CC(=O)Nc1ccc(NC(=O)CCSc2ccccc2)cc1	89.9	85.3	101.3	x

Reprinted from the part before: 4 compounds, followed by the next part.
SMILES	Sa growth inh	Sa growth inh second temp	GIV-Gai inh	HCMV NEC inh
CCOc1ccc(N(CC)S(=O)(=O)c2cccc3nsnc23)cc1	100.2	83.9	105.0	x
O=C(/C=C/c1ccco1)C1(O)CCCCC1	87.2	50.9	x	-14.2
COc1cc(OC)c(NC(=O)C2CCCN(c3nc4cccnc4s3)C2)cc1Cl (configuration not stated)	x	x	103.9	-19.0
CC(=O)Nc1ccc(NC(=O)CCSc2ccccc2)cc1	89.9	85.3	101.3	x
CC/C(=N\NC(=O)c1ccncc1)c1cccc(Cl)c1	92.5	86.4	102.0	-16.0
O=C(COc1ccc(Br)cc1CO)NCC(F)(F)F	106.1	105.8	x	-3.7
COc1cc2c(cc1OC)CN([C@H]1CS(=O)(=O)C[C@@H]1S(=O)(=O)c1ccc(Cl)cc1)CC2	x	x	100.0	-13.6
CCN(CC)Cc1c(O)ccc2c(=O)c(-c3ccccc3)coc12	84.3	87.0	101.0	-11.8
O=C(Nc1ccn(C2OC(CO)C(O)C2O)c(=O)n1)c1ccccc1 (configuration not stated)	107.0	88.4	x	-2.7
CC1CCN(c2ccc(NC(=O)c3ccccc3)cc2)CC1	112.4	117.3	103.3	1.0
CC1(C)CC(=O)c2c(Cc3ccccc3)noc2C1	88.9	88.6	x	-32.3
O=C(NCc1ccco1)Nc1c[nH]c2ccc(F)cc2c1=O	103.7	76.3	105.9	-6.4
CC(C)(C)NC(=O)[C@@H]1Cc2ccccc2CN1	90.4	87.3	107.6	-29.3
CCOC(=O)c1c(C)[nH]c(C)c1C(=O)COC(=O)c1ccc(Cl)c(S(N)(=O)=O)c1	89.3	92.6	x	-5.8
Cc1nn2c(-c3ccccc3)nnc2c2ccccc12	85.0	80.0	115.5	x
COc1ccc(OC)c(CNc2ncnc3c2nc2n3CCCC2)c1	118.5	89.0	104.0	x
O=S(=O)(NN1CCOCC1)c1ccc2ccccc2c1	103.5	108.9	109.7	-23.2
N#Cc1c(N)n(-c2cccc(N)c2)c2nc3ccccc3nc12	125.0	96.9	x	-73.5
CCOc1ccc(NC(=O)CC2C(=O)N(c3ccccc3)C(=O)N2Cc2cccc(OC)c2)cc1 (configuration not stated)	108.0	94.4	100.8	x
COc1ccc(CC(=O)Nc2sc3c(c2C(=O)Nc2cccc(C)c2)CCCCC3)cc1	95.8	83.8	101.2	-45.8
Cc1ccc(CNC(=O)c2c(-c3ccccc3Cl)noc2C)o1	89.4	91.0	105.3	x
CCOC(=O)c1c(C)c(-c2ccccc2)n(CC(=O)Nc2cccc(F)c2)c1C	102.8	87.6	98.4	-25.1
Cc1ccnc(SCC(=O)N2CCC(c3nc(-c4ccc(F)cc4)no3)CC2)n1	x	x	99.8	-3.1
COc1ccc(-c2c3c(nc4sc(C(=O)N5CCCCCC5)c(N)c24)CC(C)(C)CC3=O)cc1	105.8	87.1	101.8	x
